Assay outcomes from PubChem.
Rce1 inh: yeast Ras-converting enzyme inhibition | calls only | hit rate 0.27% among 290,000 | Q03530 | yeast membranes, quenched prenylated peptide cleavage fluorescence;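 active = fall in fluorescence gain of 50% or more versus controls, with final raw signal at or below 3038400; inconclusive = same 50% fall but final raw signal above 3038400; inactive = fall in fluorescence gain under 50%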;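 also: plate controls were neutral control wells for no effect and wells lacking membranes for full effect; tested at 10 µM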
Target sequence (Q03530 whole entry, looked up): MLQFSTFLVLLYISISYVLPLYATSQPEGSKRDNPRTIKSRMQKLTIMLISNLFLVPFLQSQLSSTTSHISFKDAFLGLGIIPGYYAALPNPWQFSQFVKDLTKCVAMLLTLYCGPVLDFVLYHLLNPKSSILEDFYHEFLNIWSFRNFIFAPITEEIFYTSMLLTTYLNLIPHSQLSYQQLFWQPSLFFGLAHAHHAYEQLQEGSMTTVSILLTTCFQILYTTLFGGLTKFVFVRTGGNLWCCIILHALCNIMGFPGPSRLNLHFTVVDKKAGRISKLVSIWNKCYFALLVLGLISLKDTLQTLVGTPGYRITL
PABP FP inh: PABP-poly(A) binding inhibition; P11940; PABP-poly(A) RNA binding, fluorescence polarization; inhibition, % at 35 µM; hit rate 1% among 290,000;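 active = 50% or more with normal probe brightness, or confirmed in later tests; inconclusive = above 50% with abnormal brightness, or retests that disagree; inactive = below 50% or failed in later tests; about a fifth of its hits are not listed in these tables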;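 also: calls also rest on retests at 20 µM and on dose response follow-up; controls were probe without protein and protein plus probe with vehicle; some compounds called inactive have numbers as strong as hits; many hits fall short of the cut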
Target sequence (P11940 whole entry, looked up): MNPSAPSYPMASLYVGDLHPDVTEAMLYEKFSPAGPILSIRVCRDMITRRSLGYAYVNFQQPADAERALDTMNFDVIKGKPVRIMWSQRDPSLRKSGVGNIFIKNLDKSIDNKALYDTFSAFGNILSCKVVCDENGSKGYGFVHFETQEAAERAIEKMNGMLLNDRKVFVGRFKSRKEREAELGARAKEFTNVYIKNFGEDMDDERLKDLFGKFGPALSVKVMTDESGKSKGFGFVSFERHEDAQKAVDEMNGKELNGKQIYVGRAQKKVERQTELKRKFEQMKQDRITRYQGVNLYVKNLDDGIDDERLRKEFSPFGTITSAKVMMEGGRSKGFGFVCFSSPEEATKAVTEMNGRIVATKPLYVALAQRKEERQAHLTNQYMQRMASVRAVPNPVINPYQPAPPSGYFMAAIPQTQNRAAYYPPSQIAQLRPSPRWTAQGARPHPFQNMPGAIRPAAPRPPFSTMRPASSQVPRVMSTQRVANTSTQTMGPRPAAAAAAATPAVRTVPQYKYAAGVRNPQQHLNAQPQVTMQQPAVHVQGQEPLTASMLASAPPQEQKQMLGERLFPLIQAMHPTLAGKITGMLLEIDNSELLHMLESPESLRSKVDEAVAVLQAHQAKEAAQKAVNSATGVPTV
Env fusion inh: blocks HIV Env-driven cell-cell fusion | inhibition, % at 12.3 µM | hit rate 1.1% among 360,000 | HeLa-JRFL Env/CEM21 cell fusion, luciferase;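 active = mean replicate inhibition score of at least 50 and every replicate individually at or above 50; inconclusive = only one of the two criteria met; inactive = mean below 50 and not all replicates reaching 50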;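 also: 0% = plate neutral controls and 100% = maraviroc near 300 nM; one replicate is shown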
CSC inhib: blocks cancer stem cells; cancer stem cell-like cells viability, luminescence; inhibition, % at 7.5 µM; hit rate 1.1% among 300,000;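 active = mean at 75% or more and at least half the replicates too; inconclusive = mean and replicates disagree; tested in HMLE shEcad cells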;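 also: 0% = median of negative and 100% = median of positive control wells; the first replicate is given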
eIF4H inh: inhibitors of RNA binding by human eIF4H | eIF4H fluorescence polarization binding assay | inhibition, % at 35 µM | hit rate 0.94% among 290,000;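 active = 50% or more with normal probe brightness, or confirmed in later tests; inconclusive = above 50% with abnormal brightness, or retests that disagree; inactive = below 50% or failed in later tests; about a fifth of its hits are not listed in these tables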;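 also: calls also rest on retests at 20 µM and on dose response follow-up; 0% = protein and probe with vehicle and 100% = probe without protein; strong numbers were not always called active; many hits fall short of the cut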
MT1-MMP act inh: inhibitors of human MT1-MMP activation; P50281; HT1080 RFP-PRO-GFP cells, GFP/RFP ratio fluorescence, overnight; percent of plate control window, DMSO zero; GFP/RFP ratio change, % at 20 µM; hit rate 0.061% among 360,000; AID 651647;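 active = GFP/RFP ratio change of at least 30% with cell ATP level not reduced by more than half and red fluorescence within 50% of control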; also: strong numbers were not always called active
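Assay system – RFP-PRO-GFP reporter HT1080 cells · Compound dosing – single dose of 20 µM compound, 1% DMSO final · Incubation – overnight compound exposure at 37 °C · Measure – GFP/RFP fluorescence ratio · Benchmarks – DMSO wells and RFP-L50D-GFP cells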
UUG fidelity: alters start codon recognition fidelity in yeast | S. cerevisiae UUG-firefly luciferase reporter, luminescence/redox ratio | activity score, % at 18.7 µM | hit rate 0.13% among 350,000 | AID 602363;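 active = replicate mean at a twofold rise or more, about +100% in these data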;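 also: firefly luciferase made from a UUG start codon reports start codon fidelity; reporter light over untreated wells divided by growth signal over untreated wells; some hits fall short of that in this replicate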
eIF4H inh retest: further read-out of eIF4H inh, marked with its call; inhibition, %; compound at 20 µM; confirmation average;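 mean of two retest wells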
PABP FP inh retest: also measured in PABP FP inh; calls as there; inhibition, %; compound at 20 µM; confirmation repeats;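 mean of two retest wells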
MT1-MMP act inh RFP: recorded beside MT1-MMP act inh, whose call it bears; RFP signal change, %; measured here: RFP expression control read;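 0 = vehicle wells; hits needed this value within 50% of zero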
The depositor's hits bear a star; i = inactive; ? = inconclusive; · = not tested or not shown. A portion of the library; count on the stated rates, not on these rows.

SMILES | Rce1 inh | PABP FP inh | Env fusion inh | CSC inhib | eIF4H inh | MT1-MMP act inh | MT1-MMP act inh RFP | UUG fidelity | others
Cc1nc(C(F)(F)F)ccc1C(=O)N1CCCC(C(=O)O)CC1 (stereo not drawn) | · | · | 1 | · | · | -4 | 1 | -16
CCOc1ccccc1CNC(CC)CO (stereo not drawn) | i | -3 | -4 | -12 | -2 | 1 | 4 | ·
O=C(NCCC1=CCCCC1)C1CCN(S(=O)(=O)c2ccc(-n3cnnn3)cc2)CC1 | · | -14 | · | · | -8 | -6 | -7 | -16
CCN(CC)c1ccc(/C=N/NC(=O)Nc2ccccc2)cc1 | i | 0 | -52 | 3 | 4 | 0 | 0 | ·
CCC(C)Sc1nnc(CSc2nc3nc(C)cc(C)n3n2)o1 (stereo not drawn) | i | -1 | 15 | -14 | 1 | 4 | 0 | ·
CCOP(=O)(c1ccc(N(C)C)cc1)C(O)c1ccccc1 (stereo not drawn) | i | -4 | -8 | 8 | -2 | 4 | 2 | -13
Clc1ccc2oc(-c3cccnc3NCc3ccccc3)nc2c1 | i | 2 | -67 | 13 | 1 | -2 | -2 | 7
O=C(O)C(c1ccccc1)N1CCCC1 (stereo not drawn) | i | 1 | -13 | -4 | -4 | 4 | 6 | -3
Cn1c2ccccc2c(=O)c2c(=O)n(C3CCCCC3)c(-c3cccs3)nc21 | i | 2 | -137 | 50 | -2 | -31 | -21 | -17
O=S(=O)(c1ccccc1)N(CC(O)CN1CCCCC1)c1ccccc1 (stereo not drawn) | i | 68 | 4 | -5 | -8 | -8 | -1 | -8 | eIF4H inh retest=-1;PABP FP inh retest=-1
COc1ccc(C2=CC(=O)C[C@H](CN3C(=O)c4ccccc4C3=O)N(C(=O)OC(C)(C)C)O2)cc1 | · | · | ? | · | · | -1 | -5 | 0
CCOC(=O)C1=C(C)OC2(O)c3ccccc3C(=O)C12O (stereo not drawn) | i | -6 | -11 | -12 | 2 | 2 | -1 | -2
CC1CCN(CCNC(=O)CCS(=O)(=O)c2ccc(Br)cc2)CC1 | · | -9 | · | 5 | 2 | -1 | 1 | -11
C=CCNc1nc(Cl)nc(Nc2ccc(OC)cc2)n1 | i | -1 | -59 | -15 | 4 | -2 | -2 | -11
Cc1sc2ncnc(OCC(=O)N3CC(=O)Nc4ccccc43)c2c1C | i | 13 | -2 | -3 | 0 | 3 | 4 | 11
COc1ccc(N2C(=O)CC(NCCNc3ccc([N+](=O)[O-])cn3)C2=O)cc1 (stereo not drawn) | i | 4 | -20 | -13 | 4 | -1 | 5 | -11
CCN(CC)CCNc1nc(-c2ccc(OC)cc2)c(-c2ccc(OC)cc2)s1 | i | -5 | 7 | 20 | -4 | -3 | -1 | ·
CCOC(=O)c1c(NC(=O)C2=C(C)NC(=S)NC2c2ccc(CC)cc2)sc(C)c1C (stereo not drawn) | i | -6 | · | 20 | -4 | · | · | ·
O=C(NCCOc1ccc(F)cc1)C1CCC(=O)N(CCCN2CCCC2=O)C1 (stereo not drawn) | i | 6 | 3 | 14 | -2 | -3 | 2 | 12
CSc1ccc(CNC(=O)C2Cc3cc(S(=O)(=O)N4CCCCC4)ccc3N2C(C)=O)cc1 (stereo not drawn) | i | -7 | 8 | -16 | -6 | -6 | -2 | -13
O=C(C1CCCN(S(=O)(=O)c2cccc3nonc23)C1)N1CCN(c2cccc(Cl)c2)CC1 (stereo not drawn) | i | -1 | · | 2 | 7 | 3 | -16 | -8
O=S(=O)(/N=C(/Nc1ccccn1)c1ccccc1)c1ccc(F)cc1 | i | 2 | -10 | -15 | -13 | 0 | 5 | -3
O=C(NCc1ccccc1)C1(C(F)(F)F)C/C(=C\CCO)CCCO1 (stereo not drawn) | i | · | -9 | -11 | · | -2 | 5 | -10
Cc1nc2ccc(S(=O)(=O)NC(C(=O)NCc3ccco3)C(C)C)cc2s1 (stereo not drawn) | i | 1 | 9 | -11 | -5 | -1 | 6 | -14
CCC1Oc2ccccc2N(CC(=O)NCCCN2CCN(CC)CC2)C1=O (stereo not drawn) | i | · | -9 | -10 | · | 1 | 5 | 2
The listing continues.
SMILES | Rce1 inh | PABP FP inh | Env fusion inh | CSC inhib | eIF4H inh | MT1-MMP act inh | MT1-MMP act inh RFP | UUG fidelity | others
CCOC(=O)Cn1c(C(=O)OCC)cc2sccc21 | i | 4 | · | 4 | 1 | -2 | 3 | -24
Cc1ccc(F)cc1NC(=O)N1CCCN(c2ccc(C(F)(F)F)cn2)CC1 | i | -4 | 49 | -2 | -6 | -2 | -24 | -26
COc1ccc(CCNC(=O)c2cc(-c3ccc(C)cc3O)n[nH]2)cc1OC | i | 1 | · | 5 | -13 | 5 | 0 | -14
CCc1ccc(N2CC(O)=C(c3nc4ccccc4c(=O)[nH]3)C2=N)cc1 | i | -4 | -25 | -4 | 2 | 2 | 1 | ·
Cc1nn(-c2ccccc2C(=O)O)c(=O)c2ccccc12 | i | 0 | -10 | -1 | -2 | -2 | 2 | -9
NC(=O)c1ccc(Oc2ccc(Cl)c3ccccc23)c([N+](=O)[O-])c1 | i | -8 | 5 | 25 | -14 | -2 | 0 | ·
CC(C)CCNC(=O)c1c[nH]c2ccc(S(=O)(=O)N3CCC4(CC3)OCCO4)cc2c1=O | i | 10 | -56 | 2 | 3 | 0 | -6 | -5
CCc1cc(=O)oc2c(C)c(OCC(=O)NCCCN3CCCC3=O)ccc12 | i | 7 | -3 | 1 | -5 | 1 | -1 | -13
Cc1cc(NC(=O)COC(=O)c2ccc(S(=O)(=O)N3CCCc4ccccc43)cc2)no1 | i | -2 | · | 53 | 10 | -7 | -14 | -16
CN(C)C(=O)C1OC(C)(C)OC1C(=O)N(C)C (stereo not drawn) | i | 4 | · | 4 | 3 | 14 | 1 | -6
O=C(NCc1cccc(F)c1)C1CCN(C(=O)c2sccc2-n2cccc2)CC1 | i | -2 | 12 | -3 | 4 | -2 | 1 | -7
Cc1cc(C)cc(C(=O)OCC(=O)Nc2cccc(S(=O)(=O)NC3=NCCCCC3)c2)c1 | i | 14 | 20 | 5 | -3 | 0 | -11 | ·
COc1cccc2cc(-c3nnc(SCC(=O)Nc4nc(C)cs4)n3C)oc12 | i | -11 | -33 | 8 | 10 | -4 | -5 | -22
COC(=O)c1sc(S(=O)(=O)N2CCN(c3ccccc3)CC2)c(C(=O)OC)c1C | i | 14 | -24 | · | -8 | 0 | -6 | -2
Cc1cccc(C(=O)Nc2scc(-c3ccc(Br)cc3)c2C(=O)O)c1 | i | · | 2 | 17 | · | 0 | -2 | -7
O=C(Nc1ccc(Cl)cc1Cl)Nn1cnnc1 | i | 0 | 10 | · | 1 | -2 | 1 | -11
CC(=O)c1cccc(NC(=O)CN2CCc3cc4c(cc3C2)OCCCO4)c1 | i | -22 | · | -4 | -7 | -3 | -2 | -10
COc1cc2cc(CCOC(=O)CCCC(=O)O)oc(=O)c2cc1OC | · | · | -63 | -12 | · | 2 | 1 | 1
CC1CCN(S(=O)(=O)c2ccc3ncn(CC(=O)N(C)Cc4ccccc4)c(=O)c3c2)CC1 | i | -6 | -1 | · | 8 | 5 | 0 | 0
Cc1cc(NC(=O)CN2CCOCC2)n(-c2nc3ccccc3s2)n1 | i | -1 | -111 | -4 | -8 | · | · | ·
O=c1c2cc(NC(=S)NCc3cccnc3)ccc2nc2n1CCCCC2 | i | -5 | -1 | -16 | -13 | 4 | -2 | ·
CCn1nc([N+](=O)[O-])c2c(-c3nc4ccccc4o3)c(N)n(CCCOC)c2c1=O | i | 52* | -8 | -39 | 70* | 2 | -1 | -15
CC(=O)c1cc(N2CCC(C(=O)O)CC2)ccc1[N+](=O)[O-] | · | 31 | -13 | -3 | -8 | 4 | -2 | ·
O=C(CNC(=O)c1ccccc1)NCCc1nc2ccccc2[nH]1 | i | 10 | · | -3 | -3 | 2 | 4 | -12
CCOC(=O)c1c(CN(CC)CC)oc2cc(Br)c(O)cc12 | i | 0 | 25 | -4 | 2 | 7 | 5 | -6
Next section.
SMILES | Rce1 inh | PABP FP inh | Env fusion inh | CSC inhib | eIF4H inh | MT1-MMP act inh | MT1-MMP act inh RFP | UUG fidelity | others
Cc1cccc(N=C2NC(=O)CS2)c1 | i | -1 | · | -2 | -2 | 6 | 9 | -4
CCOC(=O)C(C(=O)Nc1nccs1)C1CCCCC1 (stereo not drawn) | i | 6 | · | 2 | -11 | 4 | 0 | -33
COc1ccc(S(=O)(=O)NCC2CCC(C(=O)NCc3ccco3)CC2)cc1 (stereo not drawn) | i | 2 | · | -10 | 0 | · | · | -3
Nc1nc2nonc2nc1N1CCCCC1 | i | 15 | · | -4 | 2 | -3 | -1 | 37
O=C(CCN1C(=O)c2ccccc2C1=O)C1=NN[C@@H]2C(=O)N(c3ccc4c(c3)OCO4)C(=O)[C@H]12 | i | -3 | -1 | -13 | 10 | -2 | 0 | -20
CCN(CC)S(=O)(=O)c1cccc(NC(=O)CN(C)Cc2cccc(OC)c2)c1 | i | 2 | 18 | 5 | 8 | 0 | -4 | -1
Cc1nc(NC(=O)c2ccco2)sc1-c1csc(Nc2ccc(Cl)cc2Cl)n1 | i | -14 | -21 | 57 | 0 | 5 | -1 | -12
Cc1oc(-c2ccccc2)cc1C(=O)Nc1ccccc1 | i | 8 | · | 5 | -3 | -1 | 0 | 1
CCOC(=O)c1ccc(NS(=O)(=O)c2ccc3[nH]c(=O)[nH]c3c2)cc1 | i | 5 | 13 | 4 | -3 | 4 | 7 | -7
CC(OC(=O)Cc1c[nH]c2ccccc12)C(=O)Nc1ccc(S(N)(=O)=O)cc1 (stereo not drawn) | i | · | -5 | 3 | · | 2 | -1 | -16
CCCCOC(=O)Nc1nnc(C(C)C)s1 | i | -8 | 5 | -22 | 3 | 0 | 4 | ·
COc1ccc(CCNc2ccncn2)cc1OC | i | 18 | -40 | -6 | -2 | -4 | -5 | ·
O=C(Cn1nnc(-c2ccccc2F)n1)N1CCCCC1 | i | 6 | -22 | · | -11 | -3 | -1 | -28
Cc1ccc(-c2nc(CSCC(=O)N3CCN(c4ccccn4)CC3)c(C)o2)cc1 | i | 3 | 57* | -16 | -5 | 4 | -29 | -2
CCCc1ccc(Oc2coc3cc(OCC(=O)Nc4ccccc4C)ccc3c2=O)cc1 | i | -3 | · | 9 | 8 | 2 | -1 | -10
C(=C\c1ccco1)/c1ccc2ccccc2n1 | i | 88 | -91 | 2 | 106 | -21 | 15 | -18 | eIF4H inh retest=5;PABP FP inh retest=32
COc1cccc(C(=O)N2CCN(Cc3nc(CC4CC4)no3)CC2)c1 | i | -1 | 11 | -13 | 1 | 4 | 2 | -5
CC(OC(=O)c1cccc(S(=O)(=O)Nc2cccc(C(F)(F)F)c2)c1)C(=O)Nc1ccc2c(c1)OCCO2 (stereo not drawn) | i | -2 | -18 | 48 | -2 | 5 | -5 | -7
CC1Sc2ccc(S(=O)(=O)CCC(=O)NCc3cccs3)cc2NC1=O (stereo not drawn) | i | 5 | 8 | -8 | 4 | 2 | 0 | 0
CCn1c(SCC(=O)Nc2nncs2)nnc1C(C)NC(=O)c1ccccc1Br (stereo not drawn) | · | -3 | 2 | -3 | -6 | -2 | 4 | -5
